INS promoter inh – inhibitors of insulin promoter-driven GFP, primary screen, imaging, TRM-6 cells (human fetal islet line), eGFP reporter, cell count; hit rate 0.9% among 130,000; reporter expression induced with tamoxifen; inhibition, % at 2 µM;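 active means inhibition above the mean plus 3 SD, with well images judged a real hit on visual review, cut at about 60% in these data, passing the limit was not always enough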
HSV augment – enhancers of HSV replication in host cells, fold increase, host cell viability. HSV replication augmentation in cells. maximum fold increase. hit rate 0.005% among 220,000;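 active means peak rise of 1.5-fold or more in the series; tested in PC3 cells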;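 further: first round at 10 µM; read as green reporter fluorescence; hits show the peak of a series up to 25 µM; 1 = signal of infected wells without compound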
PKD1 kinase inh – inhibitors of human PKD1 kinase, biochemical, fluorescence polarization; Serine/threonine-protein kinase D1 (Homo sapiens), Q15139; PKD1 kinase fluorescence polarization assay; inhibition, %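 (about 10 µM by stock and volumes)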; hit rate 0.056% among 200,000;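 active means inhibition of 50% or more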;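 further: controls were vehicle for no effect and a reference inhibitor for full effect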
RGS16-Gao – modulators of RGS16 binding to Galphao, primary screen, biochemical, human proteins, multiplexed bead flow cytometry; binding response (% of control), % at 10 µM; hit rate 0.38% among 220,000; bead-based flow cytometry RGS16-Galphao binding, fluorescence; actives lie on both sides; AID 1441, 2008;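 active means below 25% or above 175%, edge rows of some plates excepted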;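 further: Galphao activated by GDP with aluminum fluoride before binding; 100% = wells without compound and 0% = beads without RGS; some results beyond the cut were filed as inactive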
Target sequence (O15492 whole entry, looked up): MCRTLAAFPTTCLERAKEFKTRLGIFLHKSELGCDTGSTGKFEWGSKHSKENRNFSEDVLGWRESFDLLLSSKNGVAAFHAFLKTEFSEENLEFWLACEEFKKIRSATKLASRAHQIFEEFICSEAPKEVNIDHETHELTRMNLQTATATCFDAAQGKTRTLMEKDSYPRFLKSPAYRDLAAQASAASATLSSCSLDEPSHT
Target sequence (P09471 whole entry, looked up): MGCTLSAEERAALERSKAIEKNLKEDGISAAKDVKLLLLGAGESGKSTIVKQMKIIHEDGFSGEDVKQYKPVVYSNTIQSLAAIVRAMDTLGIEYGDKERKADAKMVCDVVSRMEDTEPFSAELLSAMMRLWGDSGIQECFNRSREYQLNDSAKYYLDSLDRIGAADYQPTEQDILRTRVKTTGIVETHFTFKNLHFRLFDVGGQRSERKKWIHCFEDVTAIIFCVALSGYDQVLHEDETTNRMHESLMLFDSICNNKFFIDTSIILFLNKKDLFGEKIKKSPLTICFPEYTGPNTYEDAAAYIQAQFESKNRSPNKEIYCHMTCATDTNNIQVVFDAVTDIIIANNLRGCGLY
GALR2 agonist – GALR2 receptor agonists, primary screen, cell-based | activation, %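 (tested at 5 µM)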 | Galanin receptor type 2 (Homo sapiens), O43603 | hit rate 0.48% among 140,000 | GALR2-expressing cells, agonist activation read-out;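 active means above mean plus 3 SD of all compounds, about 5% in these data, not always enough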;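 further: 0% = vehicle buffer wells and 100% = reference agonist at full effect; tested in CHO reporter cells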
INS promoter inh cell count – also measured in INS promoter inh; calls as there; normalized cell count, %; measured here: cell count, toxicity; reference of the scale not given here;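 cells exposed to compound for 48 h; stained nuclei by imaging scaled within each plate; lower means fewer cells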
HSV augment primary fold – also measured in HSV augment; calls as there; fold increase; compound at 10 µM; measured here: primary screen fold increase 10 uM; tested in PC3 cells;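 GFP signal in the first replicate; 1 = infected wells without compound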
Starred values were filed as active, the others as inactive; i = inactive; / = not tested or not shown; [ ] = remark or other dose.

Screens in order: INS promoter inh, INS promoter inh cell count, HSV augment, HSV augment primary fold, PKD1 kinase inh, RGS16-Gao, GALR2 agonist
1) COc1ccc(NC(=O)/C(=C\c2cccs2)NC(=O)c2ccco2)cc1
→ -21, 117, i, 0.98, 4, 99, /
2) O=C(NCc1n[nH]c(=S)n1-c1ccc(Cl)c(Cl)c1)c1cccs1
→ -29, 140, i, 1.1, -6, 99, /
3) Brc1c(CSc2nnc(-c3ccco3)o2)nc2ccccn12
→ /, /, i, 1.1, -5, 105, 0.6
4) CC1SC(C)C(=O)N(CC(=O)Nc2ccc([N+](=O)[O-])cc2)C1=O (centres undefined)
→ 50, 98, i, 1, -3, 104, /
5) C/C(=C\C(=O)c1ccc(F)cc1)Nc1ccc(N2CCOCC2)cc1
→ -9, 133, i, 0.96, -2, 95, -1.0
6) COc1ccc(OC)c(/C(O)=C/C(=O)C(=O)Nc2cc(C)cc(C)c2)c1
→ -3, 91, i, 0.96, -4, 101, -2.0
7) CCN(CC(=O)Nc1ccc(C)c(F)c1)CC(=O)NC(C)(C)C
→ /, /, i, 1.1, -7, 100, /
8) Cc1cccc(OCc2nnc(SCC(=O)N3CC(=O)Nc4ccccc43)o2)c1
→ /, /, i, 1.2, 0, 102, /
9) COc1ccc(CCNC(=O)C2CCN(C(=O)c3ccc([N+](=O)[O-])cc3)CC2)cc1
→ /, /, i, 1, -3, 100, /
10) O=C(NCC1CCCO1)C1CCCN1C(=O)NC1CCCCC1 (centres undefined)
→ -133, 121, i, 0.97, -15, 95, -1.3
11) Cc1cc(C)c2nc(SCCc3ccccc3)nc(C)c2c1
→ 14, 103, i, 0.9, 1, 108, -1.3
12) Cc1cc(NC(=O)c2cccc(S(=O)(=O)N3CC(c4ccccc4)CC3=O)c2)no1 (centres undefined)
→ /, /, i, 0.88, 2, 100, -2.7
13) Cn1c(Cn2c(=O)sc3ccccc32)nnc1SCC(=O)NCc1ccccc1
→ /, /, i, 1.3, 4, 98, -0.6
14) COc1ccc2c(C)c(Cl)c(=O)oc2c1
→ -26, 84, i, 1, 7, 102, -2.3
15) Cc1cccc(NC(=S)NCC(c2cccnc2)N2CCOCC2)c1 (centres undefined)
→ /, /, i, 0.93, -5, 100, -0.5
16) O=C1c2ccccc2C(=O)c2c(Nc3ccc(CCO)cc3)ccc(O)c21
→ /, /, i, 0.82, /, 96, /
17) Cc1ccc2nc(-c3ccc(NC(=S)NCCC(C)C)cc3)sc2c1
→ -30, 104, i, 0.93, 7, /, -0.2
18) CCN(CC)S(=O)(=O)c1ccc(/C=C/C(=O)OCC(=O)N(C)C)cc1
→ 33, 46, i, 0.99, 4, 116, /
19) O=C(OCc1c(F)cccc1Cl)c1cnccn1
→ 43, 63, i, 0.69, 0, 102, -0.2
20) COc1ccc(N(C)S(=O)(=O)c2c(C)[nH]c(=O)[nH]c2=O)cc1
→ /, /, i, 1, 1, 92, 0.1
21) COc1ccc(C)cc1S(=O)(=O)N(C)CC(=O)N1CCC(C(N)=O)CC1
→ /, /, i, 1.6, 3, 98, /
22) CCC(C(=O)Nc1ccc(C(C)C)cc1)c1ccccc1 (centres undefined)
→ /, /, i, 0.99, -9, 103, /
23) O=C(c1ccc(CS(=O)(=O)c2c(Cl)cccc2Cl)o1)N1CCN(c2ccccn2)CC1
→ /, /, i, 0.87, 3, 94, -1.4
24) N=C1c2ccccc2CN1NC(=O)c1cccc(S(=O)(=O)N2CCCC2)c1
→ /, /, i, 0.99, -4, 98, 0.2
25) Cc1ccc(NC(=S)N/N=C/c2ccc(OCCC(C)C)cc2)c(C)c1
→ /, /, /, /, 3, 126, -0.2
26) COc1ccc(Nc2ncnc3c2oc2ccccc23)cc1
→ -19, 93, i, 0.95, 3, 113, -0.5
27) COc1cccc(OCC(=O)O/N=C(\N)c2ccc(OC)c(OC)c2)c1
→ -14, 106, i, 0.94, -2, 105, 0.1
28) COC(=O)c1ccc(C(=O)OC)c(NC(=S)N2CCN(c3cccc(Cl)c3)CC2)c1
→ 12, 111, i, 0.99, -6, 34, 0.2
29) C=CCNC(=O)CSc1nnc(C(CC)N(C)C)n1C1CCCCC1 (centres undefined)
→ /, /, i, 1, /, 100, /
30) CCOc1cc(C=O)ccc1OCC(=O)N1CCCC1
→ /, /, i, 0.96, -4, 101, /
31) COc1ccc(Cl)cc1-c1nc(-c2ccc(NC(=O)c3ccncc3)cc2)no1
→ -29, 59, /, /, -7, /, -1.9
32) CCOC(=O)C1(Cc2cccc(OC)c2)CCN(CC(O)CO)CC1 (centres undefined)
→ /, /, i, 1, /, 98, /
33) CCOc1ccc(N(CC(=O)Nc2ccccc2C(=O)NC(C)CC)S(C)(=O)=O)cc1 (centres undefined)
→ -31, 114, i, 0.91, -2, 102, -1.1
34) COc1ccc(OC)c(C2Nc3nc4ccccc4n3C(C)=C2C(=O)Nc2ccc(C)cc2C)c1 (centres undefined)
→ 21, 131, i, 0.85, -8, 90, -0.9
35) O=C(c1cc2c(s1)-c1ccccc1OC2)N1CCCC1
→ /, /, i, 1.1, -9, 103, -2.0
36) COc1ccc(CCNC(=O)CSc2nnc(CNC(=O)c3ccccc3F)o2)cc1OC
→ -39, 112, i, 0.81, -7, 97, -0.6
37) CC(C)c1ccc(/C=C(\NC(=O)c2ccccc2)C(=O)NCCCN2CCOCC2)cc1
→ /, /, i, 0.92, /, 92, /
38) O=C(Cc1c(O)c2ccccc2[nH]c1=O)N(Cc1ccccc1)Cc1ccccc1
→ 40, 80, i, 1, -8, 102, 0.0
39) CNc1nc2c(C)cccn2c(=O)c1C=Nc1ccc(OC)cc1
→ /, /, i, 0.88, -12, 100, /
40) CCCn1c(N2CCN(CC(=O)c3c[nH]c4ccccc34)CC2)nc2c1c(=O)[nH]c(=O)n2C
→ -62, 8, i, 1, -6, 87, -2.0
41) CCOC(=O)C1=C(C)C(c2ccccc2)NC(=S)N1 (centres undefined)
→ /, /, i, 0.8, -1, 75, 0.0
42) Cc1cc(C)c(C)c(Cn2c(CO)nc3ccccc32)c1C
→ 6, 156, i, 0.97, -1, 100, -1.6
43) O=C(O)CCC(=O)NNC(=O)CCC(=O)Nc1ccccc1
→ /, /, i, 1.1, -1, 105, /
44) CC(C)N(Cc1cc2ccccc2[nH]c1=O)C(=O)C(C)(C)C
→ -10, 85, i, 0.97, -5, 104, -4.0
45) COC(=O)c1ccc(-c2noc(CN(C)CCC3CCCCO3)n2)cc1 (centres undefined)
→ /, /, i, 1.4, 4, 94, /

Next section
| item | mol | INS promoter inh | INS promoter inh cell count | HSV augment | HSV augment primary fold | PKD1 kinase inh | RGS16-Gao | GALR2 agonist |
| --- | --- | --- | --- | --- | --- | --- | --- | --- |
| 46 | COc1ccc(CCc2nc(-c3ccc(-n4cccc4)cc3)no2)cc1 | / | / | i | 1 | 1 | 102 | -2.5 |
| 47 | Cc1ccc(NNC(=O)c2snnc2C)cc1Cl | / | / | i | 1.2 | / | 94 | / |
| 48 | CC(C)NC(=O)CSc1nc2ccccc2c(=O)n1CCCOC(C)C | / | / | i | 0.92 | -8 | 94 | -2.4 |
| 49 | CCN(CC(=O)Nc1ccc2c(c1)OCCO2)C(=O)CC1CCCC1 | -11 | 181 | i | 0.99 | -7 | 88 | 0.3 |
| 50 | C=CCc1cccc2cc(C(=O)NC(C)(C)C)c(=O)oc12 | -6 | 95 | i | 0.95 | -1 | -33 | -1.3 |
| 51 | CCCCS(=O)(=O)NC1=NCN(CCOC(=O)c2ccccc2)CN1 | -241 | 40 | i | 1 | -3 | / | -1.6 |
| 52 | Cc1ccc(S(=O)(=O)NCCC(c2ccc(F)cc2)c2ccco2)cc1 (centres undefined) | -28 | 64 | i | 0.91 | 9 | 113 | -0.7 |
| 53 | Cc1ccc(C(=O)CC2(O)C(=O)N(CN3CCOCC3)c3ccccc32)cc1 (centres undefined) | 21 | 60 | i | 0.87 | -10 | 100 | -0.9 |
| 54 | CCOc1ccc(C2N(c3ccc(Cl)cc3)C(=O)C3CCCN32)cc1OC (centres undefined) | / | / | i | 0.92 | -11 | 90 | -0.7 |
| 55 | NC(=O)c1ccc(C23CC4CC(CC(C4)C2)C3)o1 | -13 | 110 | i | 0.85 | -7 | 202*[activator] | -0.1 |
| 56 | CCCSc1nc2c(c(=O)[nH]c(=O)n2C)n1Cc1ccc(C)cc1 | / | / | i | 1.2 | -15 | 106 | -1.0 |
| 57 | CCOc1cccc(-c2nn3c(-c4ccco4)nnc3s2)c1 | -54 | 259 | i | 1.1 | 13 | 96 | -1.0 |
| 58 | CCOC(=O)c1csc(NC(=O)c2ccc(S(=O)(=O)N(C)C)cc2)n1 | / | / | i | 0.93 | -9 | 110 | -3.1 |
| 59 | O=c1cc(N2CCCCC2)c(-c2ccccc2)nn1Cc1ccccc1 | -62 | 56 | i | 1.1 | -4 | 97 | / |
| 60 | Cc1cccc(NC(c2ccc(O)cc2)c2ccc3ccc(C)nc3c2O)n1 (centres undefined) | 0 | 90 | i | 0.75 | -4 | 101 | 0.0 |
| 61 | COC(=O)c1ccc(C(=O)OCCCc2nc3ccc(N)cc3[nH]2)cc1 | -53 | 101 | i | 0.82 | -8 | 102 | -1.2 |
| 62 | O=C1CC(N2CCN(Cc3ccc4c(c3)OCO4)CC2)C(=O)N1c1ccccc1 (centres undefined) | 46 | 33 | i | 0.95 | -5 | 105 | -3.0 |
| 63 | O=C(COc1cc(Cl)c(Cl)cc1Cl)N1CCN(c2ccccn2)CC1 | 35 | 134 | i | 1.1 | 1 | 103 | / |
| 64 | COc1ccc(/C=C/C(=O)NC(=S)Nc2ccc(S(=O)(=O)Nc3cc(OC)ncn3)cc2)cc1 | 21 | 168 | i | 0.96 | 3 | 107 | / |
| 65 | O=C1C(=O)c2ccccc2C(O)=C1c1ccccc1F | / | / | i | 0.9 | / | 103 | / |
| 66 | Cn1c(SCCC#N)nnc1-c1ccc(F)cc1 | / | / | i | 0.96 | 0 | 99 | / |
| 67 | COC(=O)c1cc(-c2c(C)nn(-c3ccccc3)c2C)n[nH]1 | 46 | 131 | i | 0.91 | -5 | 97 | -3.0 |
| 68 | O=C(O)CCC(=O)NNc1ccccc1[N+](=O)[O-] | -33 | 103 | i | 0.89 | -6 | 100 | -2.0 |
| 69 | CC(=O)Nc1ccc(Nc2nc(C)nc3c2oc2ccccc23)cc1 | / | / | i | 1.1 | 1 | 107 | -1.2 |

Bioassay records (PubChem)

Compounds were not picked by outcome; 1.3% or so of the library scored in one or more.
